UUG fidelity = modulators of yeast start codon fidelity, primary screen, whole organism, S. cerevisiae, single point, plate reader | activity score, % at 18.7 µM | AID 602363, 2012 | S. cerevisiae UUG-firefly luciferase reporter, luminescence/redox ratio | hit rate 0.13% among 350,000;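 active = replicate mean at a twofold rise or more, about +100% in these data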;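 also: firefly luciferase made from a UUG start codon reports start codon fidelity; reporter light over untreated wells divided by growth signal over untreated wells; some hits fall short of that in this replicate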
Active calls of the source: *.

SMILES	UUG fidelity
CN1c2ccc(Br)cc2[C@H]2[C@H](CCN2C(=O)C2CCCCC2)[C@H]1CO	28.2
C[C@@H]1CN([C@@H](C)CO)C(=O)c2cccc(NC(=O)C3CCCCC3)c2O[C@@H]1CN(C)C(=O)Nc1ccccc1	19.4
Cc1cccc(-c2ccc([C@H]3[C@@H](CO)N4CCCCN(C(=O)c5cccnc5)C[C@@H]34)cc2)c1	0.2
CCCNC(=O)N1[C@H](CO)[C@@H]2c3ccccc3N(C(=O)c3cccnc3)C[C@@H]21	14.7
CCNC(=O)[C@@H]1[C@@H](CO)[C@@H]2Cn3c(ccc(/C=C/c4ccccc4)c3=O)[C@H]1N2C(=O)c1ccncc1	11.1
CC(C)NC(=O)N1[C@H](CO)[C@H]2c3ccccc3NC[C@H]21	-6.6
C[C@@H]1CN([C@@H](C)CO)C(=O)c2cc(NC(=O)Nc3ccc(C(F)(F)F)cc3)ccc2O[C@H]1CN(C)S(=O)(=O)c1cn(C)cn1	-4.6
COc1ccc(C(=O)N2C[C@H]3[C@@H](c4ccccc42)[C@H](CO)N3C(=O)c2cccc(F)c2)cc1	-10.0
CO[C@@H]1CN(C)C(=O)c2cc(NC(=O)C3CCC3)ccc2OC[C@H](C)N(Cc2cccnc2)C[C@@H]1C	11.8
Cc1cccc(S(=O)(=O)N2C[C@@H]3[C@H](c4ccccc42)[C@H](CO)N3C(=O)CC2CC2)c1	4.6

Retrieved by compound from above:
SMILES	UUG fidelity
COc1ccc(C(=O)N2C[C@H]3[C@@H](c4ccccc42)[C@H](CO)N3C(=O)c2cccc(F)c2)cc1	-10.0
C[C@@H]1CN([C@@H](C)CO)C(=O)c2cccc(NC(=O)C3CCCCC3)c2O[C@@H]1CN(C)C(=O)Nc1ccccc1	19.4
CCCNC(=O)N1[C@H](CO)[C@@H]2c3ccccc3N(C(=O)c3cccnc3)C[C@@H]21	14.7
C[C@@H]1CN([C@@H](C)CO)C(=O)c2cc(NC(=O)Nc3ccc(C(F)(F)F)cc3)ccc2O[C@H]1CN(C)S(=O)(=O)c1cn(C)cn1	-4.6
CN1c2ccc(Br)cc2[C@H]2[C@H](CCN2C(=O)C2CCCCC2)[C@H]1CO	28.2

Next entries.
SMILES	UUG fidelity
C[C@@H]1CN([C@@H](C)CO)C(=O)c2cc(NC(=O)CCC(F)(F)F)ccc2O[C@@H]1CN(C)C	-1.7
CO[C@@H]1CN(C)C(=O)c2cc(NC(C)=O)ccc2OC[C@H](C)N(Cc2ccccn2)C[C@H]1C	-22.5
CCC(=O)N1C[C@H](C)[C@H](OC)CN(C)C(=O)c2ccc(NC(=O)c3cnccn3)cc2OC[C@H]1C	5.3
CO[C@H]1CN(C)C(=O)c2cc(NC(=O)Nc3ccccc3F)ccc2OC[C@H](C)N(Cc2ccccc2C(=O)O)C[C@@H]1C	-1.8
Cc1cccc(-c2ccc([C@@H]3[C@H](CO)N4CCCCN(S(=O)(=O)c5cccs5)C[C@@H]34)cc2)c1	-4.6
C[C@H]1CN([C@@H](C)CO)C(=O)c2cc(NS(=O)(=O)c3cccs3)ccc2O[C@@H]1CN(C)C(=O)Nc1ccc2c(c1)OCO2	-4.9
CN1c2ccc(C#Cc3cccnc3)cc2[C@@H]2[C@@H](CCN2C(=O)Cc2cccnc2)[C@H]1CO	-3.8
CC(=O)NC[C@H]1[C@@H](c2ccc(-c3ccccc3)cc2)[C@@H](CO)N1C(=O)C1CC1	-3.2
C[C@@H]1CN([C@H](C)CO)C(=O)c2cc(NS(=O)(=O)c3ccccc3)ccc2O[C@@H]1CN(C)Cc1ccncc1	12.1
CCS(=O)(=O)N1CCCCN2[C@@H](CO)[C@H](c3ccc(C#Cc4ccccc4OC)cc3)[C@@H]2C1	2.6
COCCNC(=O)C[C@@H]1CC[C@H]2[C@H](COc3ccc(NS(=O)(=O)c4ccc(Cl)cc4)cc3C(=O)N2C)O1	0.3
CC(C)NC(=O)Nc1ccc2c(c1)CC(=O)N([C@H](C)CO)C[C@@H](C)[C@H](CN(C)Cc1ccncc1)O2	6.6
O=C(C1CCOCC1)N1C[C@@H]2[C@H](c3ccccc31)[C@@H](CO)N2Cc1ccc(Cl)cc1	-9.3
CN1CCN(C(=O)C[C@H]2CC[C@@H]3[C@H](COC[C@H](O)CN3C(=O)Nc3cc(Cl)cc(Cl)c3)O2)CC1	3.4
COc1ccc(S(=O)(=O)N2C[C@@H](O)COC[C@H]3O[C@H](CC(=O)NCCCN4CCOCC4)CC[C@@H]32)cc1	-5.2
C[C@H](CO)N1C[C@H](C)[C@@H](CN(C)Cc2ccc(C(=O)Nc3ccccc3N)cc2)Oc2c(NC(=O)c3nc4ccccc4s3)cccc2C1=O	-1.1
COc1ccc(S(=O)(=O)N2CCCCN3[C@H](C2)[C@H](c2ccc(C#CCC(C)C)cc2)[C@@H]3CO)cc1	6.5
O=C(Nc1ccc(F)cc1)N1CCCCN2[C@H](CO)[C@@H](c3ccc(-c4ccncc4)cc3)[C@@H]2C1	-3.7
COC(=O)[C@@H]1[C@@H](CO)[C@@H]2Cn3c(ccc(C4=CCCC4)c3=O)[C@@H]2N1C(=O)C1CC1	15.5
COc1cccc(C(=O)Nc2ccc3c(c2)OC[C@@H](C)N(CCc2ccccc2)C[C@@H](C)[C@H](OC)CN(C)C3=O)c1	3.8
CCCNC(=O)N1[C@@H]2CN(C(=O)Nc3ccc(F)cc3)c3ccccc3[C@@H]2[C@@H]1CO	93.7
CO[C@@H]1CN(C)C(=O)c2cc(NC(=O)C3CC3)ccc2OC[C@H](C)N(Cc2cccnc2)C[C@H]1C	-12.7
O=C(NCC(F)(F)F)[C@H]1[C@H](CO)[C@H]2Cn3c(cccc3=O)[C@H]2N1C(=O)C1CCC1	-23.4
Cc1cccc(S(=O)(=O)N2CCCCN3[C@H](CO)[C@@H](c4ccc(C#C[C@H](C)O)cc4)[C@H]3C2)c1	-11.9
O=C(C1CC1)N1CCCCN2[C@H](CO)[C@@H](c3ccc(C#CC4CCCC4)cc3)[C@@H]2C1	-4.2
C[C@H]1CN([C@@H](C)CO)C(=O)Cc2cc(NC(=O)Cc3ccccc3)ccc2O[C@H]1CN(C)S(=O)(=O)c1ccc(F)cc1	7.0
C[C@H](CO)N1C[C@H](C)[C@@H](CN(C)Cc2ccc(-c3ccccc3)cc2)Oc2c(NC(=O)C3CCOCC3)cccc2C1=O	13.9
COCCNC(=O)C[C@H]1CC[C@@H]2[C@@H](COc3ccc(NC(=O)c4ccno4)cc3C(=O)N2C)O1	13.9
CC(C)CC#Cc1ccc([C@@H]2[C@H]3CN(C(=O)Nc4ccccc4)CCCCN3[C@H]2CO)cc1	10.0
Cc1ccc(S(=O)(=O)N2C[C@H](O)COC[C@@H]3O[C@H](CC(=O)NCC4CCCCC4)CC[C@H]32)cc1	17.5
COc1ccc(CN2C[C@@H](C)[C@@H](OC)CN(C)C(=O)c3cc(NC(C)=O)ccc3OC[C@H]2C)cc1	-7.6
O=C(CC(F)(F)F)N1C[C@@H]2[C@H](c3ccccc31)[C@@H](CO)N2C(=O)CN1CCOCC1	17.6
C[C@H]1CN([C@@H](C)CO)C(=O)Cc2cc(NC(=O)Cc3ccccc3)ccc2O[C@H]1CN(C)Cc1ccncc1	22.3
CN1C(=O)c2cc(NC(=O)c3cnccn3)ccc2OC[C@H]2O[C@@H](CC(=O)NC3CCC3)CC[C@H]21	-1.1
CC(=O)N1[C@H](CNC(=O)C2CC2)[C@H](c2ccc(-c3ccccc3)cc2)[C@@H]1CO	12.2
CO[C@@H]1CN(C)C(=O)c2cc(NC(=O)C3CC3)ccc2OC[C@@H](C)N(Cc2ccc(F)cc2)C[C@H]1C	2.8
O=C(C[C@H]1CC[C@H]2[C@@H](COC[C@@H](O)CN2S(=O)(=O)c2cccc(F)c2)O1)NCCCN1CCOCC1	-20.1
Cc1noc(C)c1NC(=O)Nc1ccc2c(c1)CC(=O)N([C@@H](C)CO)C[C@@H](C)[C@@H](CN(C)Cc1ccncc1)O2	-4.0
O=C(C1CCCCC1)N1C[C@H]2[C@@H](c3ccccc31)[C@H](CO)N2C(=O)Cc1ccccn1	-3.8
CCN(C[C@H]1[C@@H](c2ccccc2)[C@H](CO)N1C(=O)COC)S(C)(=O)=O	-15.9
Cc1cccc(-c2ccc([C@H]3[C@H]4CN(C(=O)c5cccnc5)CCCCN4[C@H]3CO)cc2)c1	3.0
C[C@H](CO)N1C[C@H](C)[C@H](CN(C)Cc2ccc(Cl)c(Cl)c2)Oc2ccc(NC(=O)Nc3ccc(C(F)(F)F)cc3)cc2C1=O	-13.8
CO[C@H]1CN(C)C(=O)c2cc(NS(=O)(=O)c3ccccc3)ccc2OC[C@H](C)N(Cc2nccs2)C[C@H]1C	-4.9
C[C@@H](NC(=O)C[C@@H]1CC[C@H]2[C@@H](COC[C@H](O)CN2C(=O)Nc2cccc(F)c2)O1)c1ccccc1	16.4
CCN1[C@H](C(=O)NCc2ccccc2)[C@@H](CO)[C@@H]2Cn3c(ccc(-c4ccccc4)c3=O)[C@@H]21	-14.5
Cc1noc(C)c1S(=O)(=O)Nc1ccc2c(c1)C(=O)N([C@H](C)CO)C[C@@H](C)[C@H](CN(C)Cc1ccc(C(=O)O)cc1)O2	-10.2
C/C=C/c1ccc([C@@H]2[C@H](CO)N(Cc3ccccn3)[C@H]2CNC(=O)CC)cc1	-24.0
O=S(=O)(c1cccc(F)c1)N1CC[C@@H]2[C@H](CO)Nc3ccc(C#Cc4ccccc4F)cc3[C@@H]21	-17.5
COc1ccc(S(=O)(=O)N2CCCCN3[C@H](CO)[C@@H](c4ccc(C#CC(C)C)cc4)[C@H]3C2)cc1	8.2
C[C@@H]1CN([C@@H](C)CO)C(=O)c2cccc(NC(=O)c3ccc(-c4nccs4)cc3)c2O[C@@H]1CN(C)C	-1.2

Next part:
SMILES	UUG fidelity
Cc1ccc(-c2ccc([C@H]3[C@H](CO)N4CCCCN(S(=O)(=O)c5ccccc5C)C[C@@H]34)cc2)cc1	-18.3
COCC(=O)N(C[C@H]1N[C@H](CO)[C@@H]1c1ccc(C2=CCCC2)cc1)C(C)C	-9.4
C[C@H]1CN([C@@H](C)CO)C(=O)c2cc(NC(=O)Cc3ccccc3)ccc2O[C@@H]1CN(C)C	-6.9
O=C(C1CCC1)N1C[C@@H]2[C@H](c3ccccc31)[C@H](CO)N2Cc1ccccc1	12.5
CO[C@H]1CN(C)C(=O)c2ccc(NC(C)=O)cc2OC[C@@H](C)N(Cc2ccc(F)cc2)C[C@H]1C	-3.3
COc1ccc(S(=O)(=O)Nc2ccc3c(c2)CC(=O)N([C@H](C)CO)C[C@@H](C)[C@@H](CN(C)C)O3)cc1	-13.2
C[C@@H]1CN([C@@H](C)CO)C(=O)c2cc(NC(=O)NC3CCCCC3)ccc2O[C@H]1CN(C)S(=O)(=O)c1ccc(Cl)cc1	2.4
COC(=O)[C@H]1[C@H](CO)[C@H]2Cn3c(ccc(C4=CCCCC4)c3=O)[C@H]2N1C(=O)C1CCC1	-1.6
C[C@@H]1CN([C@H](C)CO)C(=O)c2cc(NC(=O)Nc3ccccc3)ccc2O[C@H]1CN(C)S(C)(=O)=O	9.5
CC=Cc1ccc2n(c1=O)C[C@@H]1[C@@H](CO)[C@H](C(=O)N3CCC(Cc4ccccc4)CC3)N(CC)[C@H]21 (mixture of isomers)	4.4
CO[C@@H]1CN(C)C(=O)c2ccc(NC(=O)C3CC3)cc2OC[C@@H](C)N(C(=O)NC(C)C)C[C@H]1C	7.3
CO[C@H]1CN(C)C(=O)c2cc(NC(C)=O)ccc2OC[C@H](C)N(C(=O)C2CCC2)C[C@H]1C	-8.3
O=C(C[C@@H]1CC[C@H]2[C@@H](COC[C@@H](O)CN2Cc2ccc(Oc3ccccc3)cc2)O1)N1CCOCC1	-2.5
C[C@H]1CN([C@@H](C)CO)C(=O)c2cccc(NC(=O)Nc3ccccc3)c2O[C@@H]1CN(C)C(=O)NC1CCCCC1	-27.7
COc1ccc(S(=O)(=O)Nc2ccc3c(c2)[C@@H]2C[C@H](CC(=O)O)O[C@@H](CO)[C@@H]2O3)cc1	-0.2
C/C=C/c1ccc([C@@H]2[C@@H](CO)N3CCCCN(S(=O)(=O)c4ccc(OC)cc4)C[C@H]23)cc1	-4.4
CN1CCN(C(=O)C[C@H]2CC[C@@H]3[C@H](COC[C@@H](O)CN3Cc3cccc(-c4ccncc4)c3)O2)CC1	-14.4
CNC[C@H]1Oc2ccc(NS(=O)(=O)c3ccccc3)cc2C(=O)N([C@@H](C)CO)C[C@@H]1C	-8.3
CCCC(=O)Nc1ccc2c(c1)C(=O)N(C)[C@@H]1CC[C@@H](CC(=O)NCc3ccccc3Cl)O[C@H]1CO2	10.8
O=C(c1cccc(F)c1)N1CC[C@@H]2[C@@H](CO)Nc3ccc(C#Cc4cccc(F)c4)cc3[C@@H]21	-13.5
CCN(C[C@H]1N[C@@H](CO)[C@@H]1c1ccc(-c2cccc(F)c2)cc1)C(=O)COC	-4.1
CCCNC(=O)Nc1ccc2c(c1)OC[C@@H](C)N(Cc1ccccn1)C[C@@H](C)[C@H](OC)CN(C)C2=O	-12.1
COc1ccc(CN(C)C[C@@H]2Oc3ccc(NS(=O)(=O)c4ccc(C)cc4)cc3CC(=O)N([C@@H](C)CO)C[C@@H]2C)cc1	18.5
COc1ccc(NC(=O)N2C[C@H](O)COC[C@@H]3O[C@H](CC(=O)N4CCN(C)CC4)CC[C@H]32)cc1	-6.1

Copied from the list.
COc1ccc(NC(=O)N2C[C@H](O)COC[C@@H]3O[C@H](CC(=O)N4CCN(C)CC4)CC[C@H]32)cc1 @ UUG fidelity = -6.1
COc1ccc(CN(C)C[C@@H]2Oc3ccc(NS(=O)(=O)c4ccc(C)cc4)cc3CC(=O)N([C@@H](C)CO)C[C@@H]2C)cc1 @ UUG fidelity = 18.5
CCN(C[C@H]1N[C@@H](CO)[C@@H]1c1ccc(-c2cccc(F)c2)cc1)C(=O)COC @ UUG fidelity = -4.1

Screening data deposited in PubChem by Broad Institute.

The list is partial; count on the stated rates, not on these rows.
